Menin-MLL FL inh: inhibitors of human menin-MLL interaction, wild-type MLL peptide; Fluorescence polarization, fluorescein-MLL peptide displacement from menin; FP activity change, % at 61.4 µM; 290,000 tested, under 10 active; inconclusive = falling polarisation curve, or a change in total fluorescence; inactive = total fluorescence flat and polarisation flat or rising; no compound was filed as active; the % refers to the polarisation; negative = inhibition;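 also: % of control where 0% means no effect; inhibitors lower the polarisation; unlabelled MLL peptide was the positive control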
Sfp inh: Sfp phosphopantetheinyl transferase inhibition; Q9F4F7; Biochemical Sfp PPTase activity, qHTS; Potency, µM, for the others: max response, negative = inhibition, actives largely listed as inhibitors; hit rate 3.5% among 310,000; active = well fitted inhibition curve with a large enough effect; inconclusive = small, poorly fitted or top-dose-only effect, or another doubt; inactive = no such curve, though single readings can be large or run the other way;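 also: the enzyme is Sfp with the accession as filed and its product quenches rhodamine fluorescence; potency is read from the fitted curve at half-maximal effect; 0% = enzyme reaction without inhibitor and -100% = no enzyme wells; top concentration of the series not given in the record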
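Sfp 15 nM + cpd, 15 min RT; start w/ rhodamine-CoA 5 uM, BHQ-2-YbbR 12.5 uM (final); 50 mM Hepes pH 7.6, 10 mM MgCl2, 0.01% NP-40, 0.01% BSA; read 525/598 nm at 0 and 30 min.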
D2 potentiator: human D2 receptor positive allosteric modulation; P14416; DiscoveRx D2 beta-arrestin cells, luminescence, 90 min; 100% = 57 uM dopamine signal; potentiation, % (test concentration not listed); hit rate 0.23% among 360,000; active = potentiation of 50% or more; inconclusive = 30% to 50%; inactive = 30% or less;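 also: compound concentration not given in the record; tested on top of an EC20 dose of dopamine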
Target sequence (P14416 whole entry, looked up): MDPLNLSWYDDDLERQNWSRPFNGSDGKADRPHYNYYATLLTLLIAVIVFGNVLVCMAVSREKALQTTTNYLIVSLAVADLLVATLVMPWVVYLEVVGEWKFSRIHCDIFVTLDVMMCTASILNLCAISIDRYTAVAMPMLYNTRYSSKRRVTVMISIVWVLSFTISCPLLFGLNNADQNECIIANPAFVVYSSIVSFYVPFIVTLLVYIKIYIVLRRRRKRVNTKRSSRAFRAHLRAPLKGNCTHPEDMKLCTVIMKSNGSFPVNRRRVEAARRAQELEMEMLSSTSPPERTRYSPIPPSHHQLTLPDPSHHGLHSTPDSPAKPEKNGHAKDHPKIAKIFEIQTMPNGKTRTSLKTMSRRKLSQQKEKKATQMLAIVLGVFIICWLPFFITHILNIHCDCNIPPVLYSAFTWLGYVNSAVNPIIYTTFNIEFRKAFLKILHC
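D2 cells co-treated with compound plus 50 nM dopamine (EC20) for 90 min at 37 deg C to detect potentiation. Beta-arrestin recruitment was read as enzyme-fragment luminescence after 1 h at ambient temperature. Full response was set by 57 uM dopamine.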
gsp ag: agonists of gsp mutant (McCune-Albright syndrome) | Potency, µM (titrated, usually from 76.9 µM), without a hit: top-dose activation (cAMP increase), hits mostly activators | gsp mutant cells, cAMP HTRF, 30 min; control for the full effect not named in the record | hit rate 0.13% among 340,000; active = well fitted activation curve with a large enough effect; inconclusive = small, poorly fitted or top-dose-only effect, or another doubt; inactive = no such curve, though single readings can be large or run the other way; cell line not stated here;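 also: phosphodiesterase inhibitor Ro 20-1724 added with compounds to block cAMP breakdown; potency is read from the fitted curve at half-maximal effect; nearly all actives have a fitted effect of over 60% in size; about a fifth of the inactives were tested at one dose only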
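Cells in DMEM/10% FBS with G418 were pretreated with compounds in DMSO plus […] (300 uM stock) for 30 min at 37C. cAMP was measured by HTRF (cAMP-d2 plus anti-cAMP antibody-K) after 30 min at room temperature.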
gsp antagonist: antagonists of gsp mutant (McCune-Albright syndrome). gsp-mutant cells, cAMP HTRF, 30 min; control for the full effect not named in the record. Potency, µM (titrated, usually from 76.9 µM), without a hit: at the highest dose activity change, negative = inhibition, hits mostly inhibitors. hit rate 0.4% among 340,000; active = falling curve of any shape with a large fitted effect; inconclusive = falling curve, mostly with a smaller effect; inactive = flat or rising curve; cell line not stated here;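 also: intracellular cAMP measured with PDE inhibitor Ro 20-1724 present during compound exposure; potency is read from the fitted curve at half-maximal effect; % is scaled to controls: 0 for no effect and ±100 for the full control effect; nearly all actives have a fitted effect of over 65% in size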
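HTRF cAMP measurement after 30 min RT detection following 30 min, 37C compound treatment alongside […] (added as 300 uM solution) in G418-selected cells seeded at 2000/well and grown 16–24 h.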
ClpP mod: qHTS Assay for Activators of ClpP; hit rate 1.9% among 340,000; Potency, µM (doses to about 57.5 µM), for the others: top-dose activity change, negative = active; purified B. subtilis ClpP, FRET peptide cleavage, 20 min; AID 651965, 2013; active = well fitted falling curve with a large enough effect; inconclusive = small, poorly fitted or top-dose-only effect; inactive = no such curve, though single readings can be large or run the other way; also: potency is read from the fitted curve at half-maximal effect; the source files actives as falling curves though it sought activators and does not explain the sign; nearly all actives have a fitted effect of over 65% in size; many hits overshoot -100%
Target sequence (P80244 whole entry, looked up): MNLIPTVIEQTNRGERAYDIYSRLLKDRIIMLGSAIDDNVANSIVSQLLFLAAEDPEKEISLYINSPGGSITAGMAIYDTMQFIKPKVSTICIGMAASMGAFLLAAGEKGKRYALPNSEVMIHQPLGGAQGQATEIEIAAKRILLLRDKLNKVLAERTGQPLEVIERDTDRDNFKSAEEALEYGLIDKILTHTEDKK
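Buffer: 100 mM Tris/HCl pH8, 100 mM KCl, 0.05% low protease BSA, 2.5% glycerol, 0.01% Tween-20. ClpP 10 microg/mL final; 20 min RT; delta FRET normalized to ADEP and DMSO controls.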
TRPV1 PAM: human TRPV1 potentiation. Q8NER1. TRPV1-expressing cells, Fluo-8 calcium influx, capsaicin EC20 potentiation; host cell line not named in the record; control for the full effect not named in the record. potentiation, % at 8.33 µM. hit rate 0.02% among 320,000; active means potentiation above 80%; inconclusive means 30% to 80%; inactive means below 30%; also: 0% is about no effect
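Fluo-8 calcium influx in TRPV1-expressing cells, kinetic read (ex 480/em 520 nm). Compound added and read 3 min for agonist activity, followed by capsaicin at EC20 final and 2 min further read for enhancement.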
Starred values were filed as active, the others as inactive; ? = inconclusive; · = no result given; [ ] = dose if it differs, or a comment.

SMILES,Menin-MLL FL inh,Sfp inh,D2 potentiator,gsp ag,gsp antagonist,ClpP mod,TRPV1 PAM
Cc1ccc(CNc2ccc(N3CCOCC3)c(Cl)c2)cc1,-2.2,-17.2%,4.9,3.8%[15.4 µM],-3.6%,1.1%,6.6
CCn1c(/C=C/c2cc(Br)ccc2O)nc2ccccc2c1=O,?,-5.6%,-0.5,0.1%,-28.8%,75.0%,?
COc1ccc(N2CCN(C3CC(=O)N(C)C3=O)CC2)cc1 (stereo not given),0.8,16.9%,-23.1,-2.8%,3.2%,0.2%,6.1
CCN(CC(=O)N1CCCC1)S(=O)(=O)c1ccc(F)cc1,-9.3,4.8%,-4.6,-3.3%,8.2%,-1.9%,4.4
Cc1cc(C)cc(NC(=O)CCN2CC(C)OC(C)C2)c1 (stereo not given),0.4,9.9%,-22.8,-26.1%,4.6%,1.0%,3.0
CCn1ncc(Br)c1C(=O)Nc1ccc(C(=O)OC(C)C)cc1,-0.8,-1.7%,14.1,-33.4%[inhibitor],-5.2%,-0.3%,6.6
Cc1cccc(-c2n[nH]c(=S)n2/N=C/c2ccc(C)s2)c1,·,?,-16.0,-0.1%[15.4 µM],?,1.0%,-6.0
O=S(=O)(NCc1ccccn1)c1ccccc1,0.0,-4.0%,-3.3,-23.3%,7.8%,-1.2%,-1.1
Cn1c(CNC(=O)c2ccco2)nnc1SCC(=O)N1CCN(c2ccccc2)CC1,-1.2,15.6%,-2.8,17.3%[15.4 µM],9.8%,·,26.0
COc1ccc2nc(N3CCCC(O)C3)c(C#N)cc2c1 (stereo not given),?,12.7%,-5.8,-10.8%[15.4 µM],5.7%,-2.5%,6.7
Cc1cccc(NC(=S)NC2CCN(Cc3ccccc3)CC2)c1C,2.8,19.4%,-25.8,-2.7%,11.2%,-2.7%,22.0
O=C(COC(=O)Cn1cc(C(F)(F)F)ccc1=O)Nc1ccc(Br)cc1F,·,·,-12.1,-4.9%[15.4 µM],0.3%,25.1µM*,19.5
CC(=O)C1=C(C)NC(=O)NC1c1cc(Br)ccc1OCC(N)=O (stereo not given),4.0,-11.4%,-12.8,-8.0%,3.9%,-2.9%,-18.8
Cc1cccc(N2CC(O)(c3cccs3)[N+]3=C2CCCCC3)c1 (stereo not given),-0.1,15.6%,-10.7,-11.7%[15.4 µM],-6.8%,·,11.6
CCOC(=O)c1c(NC(=O)C2c3ccccc3Oc3ccccc32)sc(C(=O)N(CC)CC)c1C,3.3,?,-15.9,-22.2%,-6.0%,-35.7%,18.3
CCOc1ccc(NC(=O)c2ccc(OC)cc2)cc1,2.2,-5.6%,-2.5,-31.9%[inhibitor],-5.6%,-7.2%,3.3
CC1=C(C(=O)OC2CCCCC2)C(c2ccccc2)NC(=O)N1 (stereo not given),-2.4,23.2%,0.5,-8.3%[15.4 µM],-5.3%,2.82µM*,10.7
COC(=O)c1ccc(NC(=O)CCN2CCN(c3ccccc3)CC2)cc1,-2.5,12.1%,9.3,16.3%,10.4%,-2.4%,-16.3
Cc1cc(C)c(S(=O)(=O)n2c([N+](=O)[O-])cnc2C)cc1C,8.4,-19.2%,-12.7,27.8%,16.1%,-1.5%,0.2
Nc1nc(SCC(=O)c2ccc(F)cc2)n[nH]1,1.5,-22.6%,-3.4,3.3%,-2.6%,·,8.8

Next part
SMILES,Menin-MLL FL inh,Sfp inh,D2 potentiator,gsp ag,gsp antagonist,ClpP mod,TRPV1 PAM
O=C1NC[C@@H](c2ccccc2)OC(=O)[C@@H](Cc2ccc(F)cc2)CC/C=C/C[C@H]1CC(=O)N(CCO)Cc1ccccc1,·,·,9.0,9.1%,-23.3%,1.0%,·
O=C(OCC(=O)c1ccc[nH]1)c1cncc(Br)c1,·,·,10.0,22.8%,-1.1%,1.7%,2.8
CCNC(=O)COC(=O)c1csc2c1CCCC2,3.5,5.9%,2.3,16.7%,1.3%,-1.2%,-10.9
Cc1nn(-c2ccccc2Cl)c2sc(C(=O)Nc3nnc(C4CC4)s3)cc12,1.7,7.1%,-7.5,-2.3%[15.4 µM],-14.2%,·,0.0
C/C(CC(=O)NC(C)(C)C)=N\NC(N)=S,-3.0,35.5µM*,7.1,-1.8%,4.3%,·,-5.4
C=CCSc1nnc(NC(=O)CSc2nc(CCC)cc(=O)[nH]2)s1,-0.5,-6.6%,-6.9,-2.8%,-7.6%,-1.7%,3.1
O=C(c1cnccn1)N1CCCC(N2CCN(c3cccc(Cl)c3)CC2)C1 (stereo not given),·,17.0%,-19.7,-2.8%[15.4 µM],1.4%,-0.6%,10.3
CC(C)(C)CC(=O)Nc1nnc(SCC(=O)Nc2ccccc2F)s1,1.3,16.4%,-12.7,-7.3%,-20.6%,-0.3%,15.2
COC(=O)C(C)N(C(=O)c1ccc(Cl)cc1)c1c(C)cccc1C (stereo not given),0.1,-11.5%,-11.1,-25.2%,-7.7%,1.0%,-17.0
CC(=O)c1ccc(N2CCN(c3ncccn3)CC2)cc1,-2.0,-5.4%,8.3,-2.4%[15.4 µM],0.0%,·,-10.4
CCSc1nnc(NC(=O)C2CSC3(C)CCC(=O)N23)s1 (stereo not given),·,·,-11.2,-5.7%,3.9%,-3.3%,·
CCN(c1ccc(C)cc1)S(=O)(=O)c1nnc(NC(=O)c2ccco2)s1,11.4,17.9%,-19.0,0.4%,?,-3.2%,3.8
O=C(NCc1ccccn1)c1cccc(NS(=O)(=O)c2ccccc2)c1,·,·,-34.5,?,2.1%,-2.6%,-1.7
COc1ccc(-c2nc3ccc(C(=O)NCCCN4CCOCC4)cc3nc2-c2ccc(OC)cc2)cc1,0.8,56.2µM*,-9.1,?,5.7%,-25.6%,5.3
COc1cccc(CNc2ccc(C)c(Cl)c2)c1,0.5,-6.3%,-3.3,-45.1%[inhibitor],-11.2%,0.0%,9.4
COc1cccc(C(=O)NCCNC(=O)c2cnccn2)c1,-12.3,13.6%,-4.1,24.5%,7.7%,·,-0.9
O=C(Cn1ncc2c([nH]c3ccccc32)c1=O)N1CCCCC1,0.0,-3.2%,-1.3,-12.6%,7.4%,3.8%,1.8
CCOC(=O)Cc1csc(NC(=O)c2ccc([N+](=O)[O-])cc2[N+](=O)[O-])n1,-2.5,6.9%,20.5,2.4%[15.4 µM],0.4%,0.7%,10.3
Cc1cc(OCC(=O)N(C)c2c(N)n(Cc3ccccc3)c(=O)[nH]c2=O)c(C(C)C)cc1Cl,·,·,-6.2,-8.1%[15.4 µM],6.5%,·,-0.5
COC(=O)c1ccc(CSc2nncn2C)cc1,5.3,7.4%,-23.5,-5.3%,10.6%,-20.3%,4.2

Carrying on.
SMILES,Menin-MLL FL inh,Sfp inh,D2 potentiator,gsp ag,gsp antagonist,ClpP mod,TRPV1 PAM
COCc1ccc(C(=O)N2CCCC(C(=O)c3ccc(SC)cc3)C2)o1 (stereo not given),1.2,0.0%,3.1,1.3%,-5.5%,-2.7%,?
C=CCn1c(C)cc(-c2csc(NCC)n2)c1C,?,?,-7.5,-5.6%[15.4 µM],-4.9%,·,17.7
CN[C@H]1C[C@H]2c3cc(N4CCN(C)CC4)ccc3CCN2C(=O)[C@H]1[C@H](C)O,·,·,1.9,-0.9%,·,0.8%,·
COc1ccc(N2CCN(CC(=O)NC(C)c3ccccc3)CC2)cc1 (stereo not given),1.9,-3.0%,-15.3,-46.0%,5.8%,·,19.7
CCOc1c(Br)cc(/C=C(\C#N)C(=O)NC2CC2)cc1OC,·,13.0%,2.6,22.8%,2.1%,-0.6%,-19.5
C/C(=N\NC(N)=S)c1ccc2c(c1)OCCO2,2.5,-22.8%,-1.6,5.2%[15.4 µM],1.1%,-0.8%,-3.9
CC(=O)Oc1ccc(C(=O)Nc2cccc3c2CCCC3)cc1,-2.5,2.8%,-2.0,0.4%[15.4 µM],1.9%,-2.5%,3.9
Cc1c(C(=O)N2CCCCCC2)c(S(=O)(=O)Nc2cccc(F)c2)c(C)n1C,·,-2.5%,-3.9,5.4%,4.1%,-0.9%,?
CCCC1=C(C(=O)OCC)C(c2cccnc2)n2nc(C)nc2N1 (stereo not given),2.7,14.1%,-7.7,1.6%[15.4 µM],-4.2%,-1.3%,-33.3
NS(=O)(=O)c1ccc(CNC(=O)C2CCCCC2)cc1,-1.6,3.7%,-10.3,-37.2%,12.2%,1.0%,-1.3
COc1cccc(/C=N/Nc2nc(N3CCCC3)nc(N3CCCC3)n2)c1O,-0.6,0.4%,-22.6,-17.7%,-5.0%,-1.4%,-6.4
Cc1ccc(S(=O)(=O)N2CCCNCC2)cc1,-7.1,-6.0%,-4.3,-9.7%[15.4 µM],11.6%,·,-0.8
CNc1nc(Nc2ccc(C)c(Cl)c2)c2cnn(C)c2n1,-2.4,2.0%,-7.6,-3.6%,-4.8%,-27.9%,2.7
Nc1c(S(=O)(=O)c2cccs2)c2nc3ccccc3nc2n1Cc1ccc2c(c1)OCO2,1.3,20.2%,-3.0,-44.4%[inhibitor],-0.9%,14.1µM*,-4.5
O=C(CSc1nc(=O)n(CCN2CCOCC2)c2c1CCCC2)Nc1ccc([N+](=O)[O-])cc1,·,·,6.4,7.1%[15.4 µM],-12.8%,·,5.0
COCCCNC(=O)c1ccc(CNS(=O)(=O)c2ccc(NC(C)=O)cc2)cc1,0.6,32.6%[activator],-7.4,-34.1%[inhibitor],17.9%,-1.4%,-8.5
c1ccc(-c2onc3cc4c(cc23)OCCO4)cc1,2.9,7.1%,117.0*,-1.6%,-2.0%,-6.2%,-8.6
COc1cc2c(C(=O)N(C)c3cc(Cl)ccc3OC)cn(C)c(=O)c2cc1OC,2.7,4.8%,-3.8,-6.4%,-3.2%,·,-4.1
COCCn1c(=O)c2c(nc3n2CCCN3CCc2ccccc2)n(C)c1=O,2.3,14.1%,4.2,3.5%,-3.1%,·,6.8
COC(=O)c1ccccc1N(Cc1ccccc1)S(C)(=O)=O,6.9,14.0%,-8.1,27.4%,8.3%,25.1µM*,-0.2

High-throughput results (PubChem)
